Sa growth 42C: blocks Staphylococcus aureus growth; S. aureus RN4220 growth, OD600, 20 h, 42 °C; active compounds read low; relative growth, % (concentration not given with the values); 170,000 tested, 0.53% active;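 active = growth at 42 °C up to 50% and 20 or more points under that at 30 °C, or under 10% at both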;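 also: 300 nL library stock went into each well; scaled to the means of positive and negative controls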
HCMV UL50-53 inh: inhibitors of HCMV UL50-UL53 nuclear egress complex interaction; HTRF UL50-UL53 interaction, normalized percent inhibition; inhibition, % (concentration not given with the values); 190,000 tested, 0.15% active;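 active = both replicates at 50% or more, plus weaker picks with an unusually low signal ratio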;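 also: stock transfer was 100 nL into about 20 µL; 0% = negative control wells and 100% = wells with untagged competitor protein; inactives centre near -12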
GIV-Gai inh: inhibitors of GIV GBA-motif binding to rat Galpha-i3; Galpha-i3/FITC-GIV peptide fluorescence polarization, 90 min; active compounds read low; scaled: aluminum fluoride 0%, vehicle 100%; AID 1224905; P08753; percent of control (FP), % (test concentration not listed); 210,000 tested, 0.42% active;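 active = replicate mean at 85% of control or lower, very high polarization wells dropped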;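 also: lower values mean more displacement of the GIV peptide from Galpha-i3; wells of about 15 µL received 100 nL stock; the first replicate is given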
Target sequence (P08753 whole entry, looked up): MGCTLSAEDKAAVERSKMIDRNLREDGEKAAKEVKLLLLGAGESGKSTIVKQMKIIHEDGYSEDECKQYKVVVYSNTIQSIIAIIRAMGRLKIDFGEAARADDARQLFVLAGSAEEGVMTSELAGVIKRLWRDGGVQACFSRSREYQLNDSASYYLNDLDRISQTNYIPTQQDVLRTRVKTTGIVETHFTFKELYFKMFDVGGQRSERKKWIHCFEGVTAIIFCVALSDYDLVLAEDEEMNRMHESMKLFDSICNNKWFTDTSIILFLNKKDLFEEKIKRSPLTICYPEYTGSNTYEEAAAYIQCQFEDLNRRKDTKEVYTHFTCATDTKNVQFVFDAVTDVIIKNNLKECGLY
Sa growth 42C second temp: further read-out of Sa growth 42C, marked with its call; relative growth, %; measured here: growth at 30 °C;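 optical density after 20 h as mean of two plates; 100% = untreated growth and lower means inhibition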
Active calls of the source: *; / = not tested or not shown; & = joins results of further samples.

SMILES	Sa growth 42C	Sa growth 42C second temp	HCMV UL50-53 inh	GIV-Gai inh
CC(CNC(=O)c1ccc(CSc2nc3ccncc3n2Cc2cccc(F)c2)cc1)c1ccccc1 (stereo unspecified)	113	98	-22	98
CCOC(=O)c1ccc(NC)c(N)c1	99	84	-24	112
CC1CCc2c(sc(NC(=O)C3CC(=O)N(Cc4ccco4)C3)c2C(N)=O)C1 (stereo unspecified)	94	80	-19	/
CC(C)(C)c1ccc(NC(=O)N2CCN(CCN3CCOCC3)CC2)cc1	99	96	-6	102
CCCCOC(=O)CSc1ncnc2sc3c(c12)CCC(C)C3 (stereo unspecified)	124	76	-24	104
O=C(c1cnc2ccccc2c1NCc1ccccc1Cl)N1CCOCC1	/	/	-12	100
CCCCN(C)CCNC(=O)c1c2c(nc3ccccc13)C(=O)N(C1CCCCC1)C2	77	89	/	101
CCC(=O)c1ccccc1OCC(=O)Nc1c(C)cccc1C	120	84	-29	/
Cc1nc(-c2cc(-c3nc(-c4ccc(Cl)cc4)no3)no2)cs1	105	98	1	99
CCOC(=O)C1=C(c2cccs2)OC(N)=C(C#N)C1c1cccnc1 (stereo unspecified)	91	66	/	102
CC(=O)Nc1ccc(C(=O)CSc2nc3ccccc3n2CC(=O)N2CCCC2)cc1	94	62	-3	102
Cc1ccc(NC(=O)Cn2cc(C(=O)c3ccco3)c3ccccc32)c(C)c1	164	71	/	99
CC(=O)Nc1ccc(C(=O)COc2ncnc3sccc23)cc1	98	92	-13	/
Cc1ccc(CNC(=O)c2ccc(-c3nc(CN4CCc5ccccc54)c(C)o3)cc2)cc1	116	88	/	105
O=C(O)c1cc(N2CCN(c3ccc(Cl)cc3)CC2)nc2ccc(NC(=O)C3CCC3)cc12	/	/	-44	107
Cc1ccc(-c2ccnc3cc(C(=O)Nc4c(C)cc(C)cc4C)nn23)cc1	/	/	-30	102
CC(NC(=O)CSCc1cccs1)c1ccccc1 (stereo unspecified)	98	81	-18	103
CCOC(=O)N1CCN(C(=O)Cn2ncc3ccccc32)CC1	101	78	/	101
COC(=O)CSc1ncc2c(n1)-c1ccccc1N(Cc1ccccc1C)S2(=O)=O	120	96	/	114
COc1cc2c(cc1OC)CN(C(=O)C1CCCN1S(=O)(=O)c1ccc(F)cc1)CC2 (stereo unspecified)	88	83	-29&-10	101&99
COc1cc(C2CC(=O)NC(SCC(=O)Nc3ccc(Br)cc3)=C2C#N)ccc1O (stereo unspecified)	/	/	-13	101
CC(C)CN(C(=O)c1cccnc1)c1nnc(Cn2nnc3ccccc32)s1	99	81	-4	99
CCOC(=O)C1=C(C)N=c2s/c(=C\c3c[nH]c4ccccc34)c(=O)n2C1c1ccc(OC)c(OC)c1 (stereo unspecified)	/	/	-21	108
CC(C)(C)N1COc2ccc3c4c(c(=O)oc3c2C1)CCCC4	96	75	-46	99
CCOC(=O)Cn1nc(C)c(NC(=O)COc2ccc(Cl)cc2C)c1C	105	93	-2	105

Next entries follow:
SMILES	Sa growth 42C	Sa growth 42C second temp	HCMV UL50-53 inh	GIV-Gai inh
Cc1ccc(-c2cn3cccnc3n2)cc1	91	68	-27	125
CCNS(=O)(=O)c1cc(C)ccc1-n1cnnn1	100	107	7	102
O=C(NCCN1CCN(c2cccc(Cl)c2)CC1)c1nnc(-c2ccc(CN3CCc4ccccc4C3)cc2)o1	101	99	6	101
Cc1nnc(SCCCC(=O)c2ccc(C(C)(C)C)cc2)s1	108	79	/	103
O=C(NCc1ccco1)c1ccc2c(c1)NC(=O)C1CCCN21 (stereo unspecified)	103	72	/	128
c1coc(-c2nc3ccccc3s2)c1	100	94	-56	/
COc1cccc(C(=O)Nc2ccc3nc4n(c(=O)c3c2)CCCCC4)c1	107	75	-19	107
COc1ccc(NC(=O)C2=CSCCO2)c(OC)c1	/	/	-35	106
CCN(CC)/C(=N/S(=O)(=O)c1ccc(Cl)cc1)c1ccccc1	99	82	/	103
O=c1cc2nc(-c3ccccc3)nc(SCCOc3ccc(Cl)cc3)n2[nH]1	108	81	/	100
CCc1nnc(-c2cc(S(=O)(=O)N3CCCC3)c[nH]2)o1	/	/	-21	99
CCN(CC)CCN=Cc1c(O)[nH]c(=O)[nH]c1=O	96	119	25	137
COC(=O)c1ccc(CSC2=NCCS2)cc1	103	93	-7	/
CS(=O)(=O)c1ccc(C2=C(c3ccccc3)C(=O)OC2)cc1	90&85&87	84&73&91	-61&-60&-71&-161	98
O=C(c1ccc(CS(=O)(=O)c2c(Cl)cccc2Cl)o1)N1CCN(c2ccccc2)CC1	91	76	-8	108
Cc1c(NC(=O)CN2C(=O)c3ccccc3C2=O)c(=O)n(-c2ccccc2)n1C	102	80	-56	103
CN(Cc1ccccc1)S(=O)(=O)c1cc(Br)cc2c1N(C(=O)C1CC1)CC2	120	81	-5	104
CC(C)NC(=O)c1ccc(F)cc1	74	84	-19	/
CCN(C(=O)c1ccc(N2C(=O)C(C)(C)CS2(=O)=O)cc1)C1CCS(=O)(=O)C1 (stereo unspecified)	/	/	-6	105
COc1cccc(C#N)c1	92	91	22	/
NC(=O)Cn1c(=O)sc2ccccc21	93	84	-8	101
Cc1cc2ccccc2c(=O)n1CC(=O)NCC(=O)NCC1COc2ccccc2O1 (stereo unspecified)	116	95	/	104
COc1ccc(N2C(=O)CCC(C(=O)NC(C)C)C2c2ccc(OC)c(OC)c2)cc1 (stereo unspecified)	86	84	-2	101
COc1ccccc1C(=O)COC(=O)CSc1nnc(-c2ccco2)n1Cc1ccccc1	104	101	8	/
Cc1nc2nc(NCc3ccc(Cl)cc3)[nH]n2c(=O)c1CCC(=O)NC(C)C	/	/	-18	98

The closing five entries of the part above are carried over, then new ones follow:
SMILES	Sa growth 42C	Sa growth 42C second temp	HCMV UL50-53 inh	GIV-Gai inh
NC(=O)Cn1c(=O)sc2ccccc21	93	84	-8	101
Cc1cc2ccccc2c(=O)n1CC(=O)NCC(=O)NCC1COc2ccccc2O1 (stereo unspecified)	116	95	/	104
COc1ccc(N2C(=O)CCC(C(=O)NC(C)C)C2c2ccc(OC)c(OC)c2)cc1 (stereo unspecified)	86	84	-2	101
COc1ccccc1C(=O)COC(=O)CSc1nnc(-c2ccco2)n1Cc1ccccc1	104	101	8	/
Cc1nc2nc(NCc3ccc(Cl)cc3)[nH]n2c(=O)c1CCC(=O)NC(C)C	/	/	-18	98
Cc1nc2nc3c(c(Nc4cccc(Cl)c4)n2n1)CCCC3	/	/	-6	107
COc1cc(OC)c(N(C)C(=O)c2cc3c(=O)oc4ccccc4c3s2)cc1Cl	80	91	-15	104
NCC[C@@H](O)C(=O)N[C@@H]1C[C@H](N)[C@@H](O[C@H]2O[C@H](CN)[C@@H](O)[C@H](O)[C@H]2O)[C@H](O)[C@H]1O[C@H]1O[C@H](CO)[C@@H](O)[C@H](N)C1O (stereo partly specified)	90	88	-14	/
COc1ccc(NC(=S)NCCn2cc(Br)cn2)cc1OC	86	60	3	99
COCc1cc(CN2CCN(c3ccccc3OC)CC2)c(O)c2ncccc12	50	1	-8	102
Cn1cc(S(=O)(=O)N2CCc3ccccc32)cc1C(=O)NCc1ccccn1	/	/	-16	107
Cc1n[nH]c(=O)c2c(NC(=O)COC(=O)C3(c4ccc(Cl)cc4)CCC3)oc(C)c12	168	97	-58	/
CCOc1ccc(NC(=O)CN(C)c2nnnn2-c2ccccc2)cc1OCC	95	89	-26	/
CCc1cc2c(NCCCN3CCOCC3)nc(C)nc2s1	79	69	/	104
Cc1cc(N2CCN(c3cccc(C(F)(F)F)c3)CC2)n2nc(-c3ccccc3C)nc2n1	97	81	-18	117
Cc1ccc2oc(-c3ccc(Cl)c(NC(=O)c4ccc(-c5ccccc5[N+](=O)[O-])o4)c3)nc2c1	100	89	-34	111
CCOC(=O)c1c(-c2ccccc2)oc2cc(Br)c(OCC(N)=O)cc12	106	89	-13	101
Cc1c(NC(=S)NC(=O)c2sc3ccccc3c2Cl)c(=O)n(-c2ccccc2)n1C	/	/	3	102
COc1ccccc1NC(=O)c1sc2ncn(Cc3cccc(F)c3)c(=O)c2c1C	93	93	8	102
COc1ccc(/C=C2/SC(=O)N(CNc3cccc(Cl)c3)C2=O)cc1OC	/	/	-45	101
CCc1ccc(NC(=O)CCn2cnc3ccccc3c2=O)cc1	120	90	/	102
CNC(=O)c1sc2nc(-c3ccccc3)cn2c1C	70	49	/	101
Cc1ccc(S(=O)(=O)N(Cc2nc3nc(C)cc(C)n3n2)c2ccc(F)cc2)cc1	/	/	10	104
CN1C(=O)S/C(=C\C(=O)O)C1=O	89	80	-32	93
COc1ccccc1CCNC(=O)Cc1c(C)c2ccc(O)cc2oc1=O	79	82	-41	95
O=C(O)C(C(=O)O)C12OC3C4C5CC(C6C5C3C61)C42 (stereo unspecified)	83	84	-14	/
O=C(NCCCO)C(=O)NCC(c1ccc2c(c1)OCO2)N1CCOCC1 (stereo unspecified)	90	96	/	96
O=C(O)c1oc2ccccc2c1CSc1ccccn1	133	95	-6	/
COc1ccc(NC(=O)CSc2nc3c(oc4ccccc43)c(=O)n2-c2ccccc2)cc1OC	90	80	-32	100
Cc1cc(=O)oc2cc(OCC(=O)OC(C)C(=O)Nc3ccc(S(N)(=O)=O)cc3)ccc12 (stereo unspecified)	84	88	-32	/

Part of the list above in order of heavy-atom count, highest first.
SMILES	Sa growth 42C	Sa growth 42C second temp	HCMV UL50-53 inh	GIV-Gai inh
COc1ccccc1NC(=O)c1sc2ncn(Cc3cccc(F)c3)c(=O)c2c1C	93	93	8	102
Cn1cc(S(=O)(=O)N2CCc3ccccc32)cc1C(=O)NCc1ccccn1	/	/	-16	107
CCc1ccc(NC(=O)CCn2cnc3ccccc3c2=O)cc1	120	90	/	102
Cc1nc2nc3c(c(Nc4cccc(Cl)c4)n2n1)CCCC3	/	/	-6	107

Later entries:
SMILES	Sa growth 42C	Sa growth 42C second temp	HCMV UL50-53 inh	GIV-Gai inh
CC(c1ccc(S(N)(=O)=O)cc1)N(C)c1ncnc2sccc12 (stereo unspecified)	126	84	-7	/
Cc1nn(C)c(C)c1CCNS(C)(=O)=O	/	/	-8	99
CCS(=O)(=O)CCSc1nc(-c2ccccc2)cc(-c2ccccc2)c1C#N	97	87	/	98
Cc1cc(Cl)ccc1OCC(=O)N1CCC(c2nc3ccccc3s2)CC1	89	37	-9	100
O=C(Nc1cccc(Br)c1)c1ccc(OC2CSC2)cc1	105	87	-12	/
C=CCc1c(C)nc(OCC(=O)OCC)c(C#N)c1C	105	91	-3	103
CC(C)NC(=O)Cn1c(=O)cnc2ccccc21	96	99	-38	/
O=C1CC2(CCCC2)C(=O)N1	101	98	-42	/
Cc1nc2c(C(=O)NCCc3ccccc3)c[nH]n2c(=O)c1Cc1ccc(F)cc1Cl	-0.2*	-0.3*	-79	104
COc1ccc(C2CC(=O)c3c(C)nc(N4CCN(C=O)CC4)nc3C2)c(OC)c1 (stereo unspecified)	103	80	-16	105
CCOC(=O)C1CCN(C(=O)c2nn(-c3ccccc3)nc2C)CC1	93	86	-26	104
CCCc1cc(=O)[nH]c(SCc2nc(-c3cc(Br)ccc3OC)oc2C)n1	/	/	-41	107
O=C(NC1CCCCC1)c1noc2c1CCCCC2	103	92	/	97
CC1CCc2c(sc(NC(=S)NC(=O)c3ccn(C)n3)c2C(N)=O)C1 (stereo unspecified)	92	87	-12	101
CC1CN(C(=O)c2ccc(Br)o2)CC(C)O1 (stereo unspecified)	103	102	-10	101
O=C(NCCN1CCCCCC1)c1ccc(CS(=O)(=O)c2c(Cl)cccc2Cl)o1	96	88	0	100
CCOC(=O)c1c(-c2ccc(C)cc2)csc1NC(=O)c1cc(-c2ccc(C)c(F)c2)on1	97	88	-7	100
CN(C)S(=O)(=O)Nc1cccc(C(F)(F)F)c1	79	87	-11	99
C=CCn1c(SCC(=O)/C(C#N)=C2\Sc3ccccc3N2C)nc2ccccc2c1=O	89	97	0	/
CSc1ncccc1C(=O)OCC(=O)c1ccccc1	85	93	7	/
COc1cccc2sc(=NC(=O)CC34CC5CC(CC(C5)C3)C4)n(C)c12	89	102	/	104
CCN(c1ccccc1)S(=O)(=O)c1c[nH]c(C(=O)OC)c1	97	81	-16	97
Cc1cccc(C(=O)Nc2cccc(OCc3cc(=O)n4cc(C)sc4n3)c2)c1	92	96	-18	101
CC(C)c1cc(C(=O)O)n(C)n1	92	87	-18	100
CCOc1ccc(C(=O)NCC(c2ccc3c(c2)OCO3)N2CCN(c3ccc(F)cc3)CC2)cc1 (stereo unspecified)	114	93	/	100

Remaining list, next part
SMILES	Sa growth 42C	Sa growth 42C second temp	HCMV UL50-53 inh	GIV-Gai inh
Cc1ccc(NS(=O)(=O)c2c(C)nc3sc4cc(C)ccc4n3c2=O)cc1	/	/	-40	109
Cc1c(OCc2ccccc2)ccc2c(C(F)(F)F)cc(=O)oc12	105	91	/	105
O=C(Nc1ccc(F)cc1)c1ccc2c(c1)NC(=O)c1ccccc1S2	127	91	-38	99
CC(C)N1C(=O)/C(=C\c2ccc(C(F)(F)F)cc2)N(C)C1=S	95	87	-8	/
N#Cc1c(N)nc2c(c1-c1cccnc1)CCCC2	97	95	0	95
CCc1ccc(C(=O)c2cn(CC(=O)Nc3ccc(OC)cc3OC)c3ccc(CC)cc3c2=O)cc1	111	98	-16	106
COc1ccc(C2CC(=O)C3=C(C2)NC(C)=C(C(=O)OC(C)C)C3c2cc(Br)c(O)c(OC)c2)cc1 (stereo unspecified)	/	/	-14	103
CC(C)(C#N)NC(=O)c1ccco1	87	88	-5	99

Screening data (PubChem)
